High-throughput results as filed in PubChem.
Marburg entry inh – blocks Marburg virus binding to or entry into cells; Marburg virus pseudotyped entry inhibition, cell reporter; control for the full effect not named in the record; about a third of the inactives were read at about 46 µM; Potency, µM (top dose mostly 37.8 µM), for inactives: at the top dose activity change, negative = inhibition, hits mostly inhibitors; 300,000 compounds, 1.8% hits; active = well fitted inhibition curve with a large enough effect; inconclusive = small, poorly fitted or top-dose-only effect, or effect the other way; inactive = flat fitted curve, though single readings scatter; tested in HEK293 cells; about a fifth of its hits are not listed in these tables; further: on the % scale 0 is the no-effect control and ±100 the full control effect; luciferase read-out
Lassa entry inh – inhibitors of Lassa virus binding or cell entry; Lassa virus pseudotype entry inhibition, cell reporter; control for the full effect not named in the record; Potency, µM (doses to about 37.9 µM), for the others: at the highest dose activity change, negative = inhibition, actives largely listed as inhibitors; 300,000 compounds, 1.2% hits; AID 540256; active means well fitted inhibition curve with a large enough effect; inconclusive means small, poorly fitted or top-dose-only effect, or effect the other way; inactive means flat fitted curve, though single readings scatter; tested in HEK293 cells; further: on the % scale 0 is the no-effect control and ±100 the full control effect; nearly all actives have a fitted effect of over 50% in size; luciferase read-out
Cruzain Triton – inhibitors of Trypanosoma cruzi cruzain with detergent; P25779; purified cruzain, Z-FR-AMC fluorescence, 0.01% Triton; Potency, µM, for inactives: max response, negative = inhibition, actives largely listed as inhibitors; 200,000 compounds, 0.43% hits;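 further: plate controls were neutral wells for no effect and buffer without enzyme for full effect; nearly all actives have a fitted effect of over 40% in size; top concentration of the series not given in the record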
Target sequence (P25779 123-467 limits assumed): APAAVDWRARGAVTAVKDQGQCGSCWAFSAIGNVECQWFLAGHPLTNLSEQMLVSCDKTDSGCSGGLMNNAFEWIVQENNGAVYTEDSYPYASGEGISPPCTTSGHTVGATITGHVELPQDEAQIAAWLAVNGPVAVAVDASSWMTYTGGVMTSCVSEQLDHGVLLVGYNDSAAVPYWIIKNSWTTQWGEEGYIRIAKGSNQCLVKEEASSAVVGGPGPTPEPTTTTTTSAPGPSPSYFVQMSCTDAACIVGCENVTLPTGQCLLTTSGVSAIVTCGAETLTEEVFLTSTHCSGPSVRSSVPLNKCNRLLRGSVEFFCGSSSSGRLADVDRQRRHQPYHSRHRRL
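Cysteine protease activity tested under reducing, mildly acidic conditions (100 mM sodium acetate pH 5.5, 5 mM DTT) plus 0.01% Triton X-100. Cruzain 1.5 nM; substrate Z-FR-AMC 2 uM; 15 min compound preincubation at room temperature.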
2A StopGo – lowers the luciferase signal of an FMDV 2A StopGo reporter | Potency, µM (doses to about 57.9 µM), for inactives: at the highest dose signal change, negative = less light | AID 1159524 | 410,000 compounds, 1.2% hits | human cells with a luciferase reporter of 2A StopGo recoding; control for the full effect not named in the record; active = well fitted falling curve with a large enough effect; inconclusive = small, poorly fitted or top-dose-only effect; inactive = no such curve, though single readings can be large or run the other way; tested in HEK293T cells; further: on the % scale 0 is the no-effect control and ±100 the full control effect; nearly all actives have a fitted effect of over 45% in size; luciferase light after 4 h
SARS PLP yeast – SARS-CoV PLP inhibition in yeast | S. cerevisiae expressing SARS-CoV PLpro, growth rescue; control for the full effect not named in the record | Potency, µM (doses to about 32.9 µM), for the others: top-dose activity, positive = growth rescue | 330,000 compounds, 0.19% hits | AID 485353; active means well fitted rising curve with a large enough effect; inconclusive means small, poorly fitted or top-dose-only effect; inactive means no such curve, though single readings can be large or run the other way; further: 0% is about no effect; nearly all actives have a fitted effect of over 55% in size; growth read by luminescence after 48 h
Cruzain inh noDet – cruzain (T. cruzi) inhibition without detergent. 200,000 compounds, 2.3% hits. Potency, µM, for the others: max response, negative = inhibition, actives largely listed as inhibitors. purified cruzain, Z-FR-AMC fluorescence, no detergent;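 further: plate controls were enzyme without inhibitor for no effect and buffer without enzyme for full effect; nearly all actives have a fitted effect of over 40% in size; top concentration of the series not given in the record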
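Detergent-free condition (0.00005% Triton X-100) in acetate buffer pH 5.5 with DTT. 1.5 nM enzyme and compound were pre-mixed 15 min, then 2 uM Z-FR-AMC substrate added; reaction progress from fluorescence change between first and third reads (60 s).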
RE007 growth inh – less growth of the S. pombe RE007 Vpr strain. S. pombe RE007 Vpr strain, BacTiter-Glo ATP luminescence, 24 h; control for the full effect not named in the record. Potency, µM (doses to about 92.2 µM), without a hit: at the top dose activity change, negative = less growth. 360,000 compounds, 0.21% hits; active = well fitted falling curve with a large enough effect; inconclusive = small, poorly fitted or top-dose-only effect; inactive = no such curve, though single readings can be large or run the other way;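 further: on the % scale 0 is the no-effect control and ±100 the full control effect; nearly all actives have a fitted effect of over 50% in size; the assay follows cell death caused by Vpr and the record does not say whether a fall means rescue or toxicity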
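Fission yeast RE007 carrying one integrated HIV-1 vpr copy, seeded at OD 0.01 in PMG+AL medium with 23 nL pinned compound. Grown 24 h at 30 degrees; viability read by BacTiter-Glo luminescence after 5 min.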
NS1 function inh – blocks influenza NS1 protein function; S. cerevisiae slowed by influenza A NS1, growth recovery by OD600; Potency, µM (doses to about 46.1 µM), for inactives: top-dose activity, positive = more growth; 270,000 compounds, 0.4% hits; active means well fitted rising curve with a large enough effect; inconclusive means small, poorly fitted or top-dose-only effect; inactive means no such curve, though single readings can be large or run the other way; further: nearly all actives have a fitted effect of over 50% in size
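In this qHTS, NS1 from influenza A is expressed in budding yeast, where it slows growth. Cells are switched from glucose to 2% galactose medium (pH 6.0, -URA), treated with compound, and growth recovery is read at OD600.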
Active calls of the source: *; u = inconclusive; x = no result given; & = joins results of further samples; [ ] = another dose, or the depositor's remark. Unless noted, the call rests on the fitted dose curve; in most records, active means well fitted curve in the direction sought with a large enough effect; inconclusive means small, poorly fitted or top-dose-only effect, or another doubt; inactive means no such curve, though single readings can be large; an effect the other way counts as inactive or inconclusive. Potency means the concentration at half of the fitted maximal effect.

SMILES	Marburg entry inh	Lassa entry inh	Cruzain Triton	2A StopGo	SARS PLP yeast	Cruzain inh noDet	RE007 growth inh	NS1 function inh
Cc1cccc(C)c1NC(=O)CSc1nc(-c2ccco2)cc(C(F)(F)F)n1	u	-30%	-5.5%	x	11%	u	-6%	16%
Cc1ccc(N2CCN(S(=O)(=O)c3c(C)noc3C)CC2C)cc1 (stereo unspecified)	x	x	x	-22%	1%	x	-3%	-20%
CSc1ccc(CCNS(=O)(=O)c2csc(C(N)=O)c2)cc1	-2%[46.1 µM]	-2%[46.1 µM]	x	1%	-2%	x	-11%	-5%
CCOC(=O)c1cc(NC(=O)c2ccc(Cl)cc2)c(=O)oc1-c1ccccc1	-12%	u	0.7%	22%	-3%	7%	23%	0%
CCn1c(=O)c(C(=O)Nc2ccc(C(C)=O)cc2)nc2ccccc21	19%[46.1 µM]	23%[46.1 µM]	-3.2%	35%[activator]	x	-14%	x	x
CCn1cc(C(=O)N2CCc3ccccc32)c(=O)c2cc(S(=O)(=O)N3CCCCCC3)ccc21	1%	7%	-25%	13%	-8%	6%	6%	-1%
Cc1cc(C)cc(NC(=O)CSc2nc3c(cnn3-c3ccc(F)cc3)c(=O)[nH]2)c1	-1%[46.1 µM]	0%[46.1 µM]	0.8%	-4%	x	1%	x	x
Cc1c(NS(=O)(=O)c2ccccc2)cc(Cl)c(O)c1C	5%	11%	-4.6%	5%	u	-4%	6%	-10%
CCN(CC)c1ccc(C(=O)OCC(=O)N2CCN(c3ccccc3)CC2)cc1	2%	u	-4.0%	-18%	6%	13%	-2%	0%
C/C(=N/NC(=O)Cc1cccs1)c1ccco1	13%	6%	-2.0%	8%	-1%	2%	-3%	4%
COc1ccccc1CNC(=O)CCC1N=C2c3ccccc3N=C(SCC(N)=O)N2C1=O (stereo unspecified)	x	-4%[46.1 µM]	-1.9%	-19%	x	7%	x	x
COc1ccc(NC(=O)[C@H](NC(=O)[C@@H]2Cc3ccccc3CN2)c2ccccc2)cc1	u	-5%[46.1 µM]	x	12%	4%	x	-8%	-8%
COc1ccc(S(=O)(=O)Nc2ccc3oc(C)c(C(C)=O)c3c2)cc1	-30%	u	-7.2%	-28%	1%	-7%	-7%	4%
CCOc1cc(/C=N/NC(=O)CCn2nc(C)cc2C)ccc1O	x	x	x	-9%	1%	x	-7%	1%
C[C@]12CCC(=O)C[C@@H]1CC[C@@H]1[C@@H]2CC[C@]2(C)C=CC[C@@H]12	x	x	x	-10%	1%	x	5%[18.4 µM]	-2%
CN(C)c1nc(NCc2ccccc2)nc(N/N=C/c2ccc(Cl)cc2Cl)n1	u	-18%	2.0%	-26%	4%	6%	-3%	20%
CCc1ccc(C(=O)COC(=O)C(Cc2c[nH]c3ccccc23)NC(=O)c2ccc(CC)cc2)cc1 (stereo unspecified)	x	u	-2.7%	21%	x	u	x	x
CCCCCCCC(=O)N/N=C/c1ccco1	9%	3%	-4.0%	-24%	-9%	-1%	15%	-19%
O=C(CN1C(=O)S/C(=C\c2ccc(Cl)cc2)C1=O)NNC(=O)c1ccccc1O	u	4%	-5.5%	-15%	-4%	20µM*	9%	0%
CN(C)CCN(C(=O)CN1C(=O)c2ccccc2C1=O)c1nc2cc3c(cc2s1)OCCO3	-6%	23%	x	79%[activator]	-3%	x	15%	x
COc1cc(NC(=O)CCn2nc(C)cc2C)cc(OC)c1OC	x	1%[46.1 µM]	-2.7%	-18%	x	24%	x	x
COC(=O)c1c(C)oc2ccc(N(C(=O)c3ccncc3)S(=O)(=O)c3ccc4ccccc4c3)cc12	u	u	-1.3%	-2%	-5%	-29%	7%	11µM*
Cc1ccc(CNC(=O)c2cn(C)c(=O)c3c2c2ccccc2n3C)o1	-5%	4%	3.1%	-3%	5%	u	-5%	2%
O=C(CC(C(=O)O)c1ccc(Cl)cc1)c1ccccc1 (stereo unspecified)	2%[46.1 µM]	14%[46.1 µM]	x	-4%	0%	x	-4%	x
CC1(C)CC(NC(=O)C(c2ccccc2)c2ccccc2)CC(C)(C)N1	x	x	x	0%	-1%	x	1%	-1%
CN1CCN(Cc2c(O)ccc3c(=O)c(Oc4ccccc4Cl)c(C(F)(F)F)oc23)CC1	x	x	-5.9%	0%	-3%	-8%	-5%	-41%
Cc1ccc(N2CC(c3nc4ccccc4n3C)CC2=O)cc1C (stereo unspecified)	x	x	-3.1%	-19%	-2%	-3%	-6%	-21%
Cc1c(Cl)cccc1NC(=O)CSc1ncccc1C(=O)Oc1ccccc1Cl	x	u	0.9%	-19%	x	-16%	x	x
Cc1ccc(NC(=O)CN2C(=O)S/C(=C\c3ccc(C(=O)O)cc3)C2=O)cc1	x	x	x	-10%	u	x	-23%	-9%
O=C(Nc1ccc2c(c1)OCO2)N1CCN(c2ncc(C(F)(F)F)cc2Cl)CC1	-21%	-5%	-6.1%	u	-3%	7%	-2%	-25%

Taken from the listing for reference:
SMILES	Marburg entry inh	Lassa entry inh	Cruzain Triton	2A StopGo	SARS PLP yeast	Cruzain inh noDet	RE007 growth inh	NS1 function inh
CC1(C)CC(NC(=O)C(c2ccccc2)c2ccccc2)CC(C)(C)N1	x	x	x	0%	-1%	x	1%	-1%
CN1CCN(Cc2c(O)ccc3c(=O)c(Oc4ccccc4Cl)c(C(F)(F)F)oc23)CC1	x	x	-5.9%	0%	-3%	-8%	-5%	-41%

Later entries:
SMILES	Marburg entry inh	Lassa entry inh	Cruzain Triton	2A StopGo	SARS PLP yeast	Cruzain inh noDet	RE007 growth inh	NS1 function inh
CCN(CC(=O)Nc1c(F)cccc1F)C(=O)CCSc1ccc(C)cc1	4%	-30%[46.1 µM]	x	10%	8%	x	-22%	x
COc1ccc(NC(=O)c2cccc(-n3cnnn3)c2)cc1	16%	22%	0.6%	5%	3%	1%	11%	-3%
COCCOC(=O)C1=C(N)Oc2c(c(=O)oc3ccccc23)[C@@]12C(=O)Nc1ccccc12	2%	-13%	-2.2%	8%	-3%	5%	9%	-8%
CCOc1ccc(Br)cc1S(=O)(=O)NCc1ccncc1	-30%[46.1 µM]	-39%	x	51%[activator]	-3%	x	4%	-6%
COCCOC(=O)C1=C(C)OC(N)=C(C#N)C1c1cc2cccc(C)c2nc1Cl (stereo unspecified)	u	-5%	x	-29%	0%	x	3%	0%
COc1ccc(C(=O)NCCN2CCCC2)cc1[N+](=O)[O-]	u	u	x	-10%	-3%	x	7%	8%
CC(C)Nc1oc(-c2cccc3ccccc23)nc1C#N	-2%	10%	18%	x	7%	u	7%	-14%
O=C(CN(C(=O)CCC(=O)Nc1nccs1)c1ccc2c(c1)OCCO2)NCc1ccco1	2%&2%[46.1 µM]	1%	2.9%	-4%	-4%	-8%	10%	-3%
O=C(CCN1C(=O)/C(=C/c2ccccc2)SC1=S)NCCc1ccc(O)cc1	x	x	x	-1%	-3%	x	-5%	1%
O=C(Nc1ccc(Br)cc1)c1cccc(S(=O)(=O)Nc2ccccn2)c1	u	-25%	x	3%	-4%	x	-1%	12%
Cc1ccc(NC(=O)c2ccccc2Br)c(C(=O)c2ccccc2)c1	x	-18%[46.1 µM]	-6.0%	1%	x	-6%	x	x
O=C(NCc1ccc(-n2cccc2)cc1)c1cccc(F)c1	u	-3%[46.1 µM]	x	-10%	2%	x	7%	x
O=S(=O)(c1ccccc1)N1CCN=C1SCc1c(F)cccc1Cl	-26%	u	x	-20%	-1%	x	19%	-19%
C=Cn1ccnc1P(=S)(c1ccn(C)c1)c1nccn1C=C	u	26%	0.9%	-18%	-6%	3%	-3%	-4%
COc1cc(-c2nc3c[n+](CC(=O)c4ccccc4)ccc3n2C)cc(OC)c1OC	-2%	1%	-2.1%	-20%	1%	8%	18%	7%
O=C(CSc1cccc(C(F)(F)F)c1)NCc1ccccc1	-2%	u	-4.4%	-11%	0%	-7%	2%	-8%
O=C(Nc1ccc(F)cc1F)c1cc(CN2CCOCC2)on1	x	5%[46.1 µM]	-1.1%	11%	x	-1%	x	x
CN(C)c1cccc(C(=O)OCC(=O)NCC2CCCO2)c1 (stereo unspecified)	-1%	14%	1.2%	-4%	-11%	-9%	4%	-3%
COc1cc(CNC2CCCC2)cc(Cl)c1OCc1ccc(F)cc1	u	u	-3.8%	-27%	-6%	7%	4%	-25%
O=C1CN(CC(=O)NC2CCCc3ccccc32)CCN1 (stereo unspecified)	x	x	x	-23%	0%	x	-6%	4%
COc1ccccc1N1CCN(C(=O)c2ccc(COc3cccc4c3OC(C)(C)C4)cc2)CC1	u	x	x	u	-8%	x	-18%	x
O=C(/C(=C(\[O-])c1ccccc1)[n+]1ccc2ccccc2c1)c1ccccc1	-7%	2%	-1.7%	48%[activator]	1%	u	u	-1%
Cc1c(Cl)c(C(=O)NNC(=S)Nc2ccc(F)cc2)nn1C	u	u	x	16%	0%	x	-22%	-1%
CCOC(=O)C1(CCCc2ccccc2)CCN(C(=O)Cn2nc(C)nc2C)CC1	x	x	x	u	2%	x	-3%	-4%
Cc1ccc(CN2CCN(c3cccc4[nH]ccc34)CC2)cc1	x	x	x	-22%	-2%	x	-3%	2%
CCCCNS(=O)(=O)c1ccc(C)c(-c2nnc3c4ccccc4c(C)nn23)c1	-2%[46.1 µM]	-14%[46.1 µM]	-2.2%	30%	x	1%	x	x
CCOC(=O)C1(CCOc2ccccc2)CCN(Cc2cccn2-c2ncccn2)CC1	8.9µM*	u	x	-3%	-2%	x	1%	1%
O=C(CCNc1ccc(Cc2ccncc2)cc1)c1cccc([N+](=O)[O-])c1	u	u	x	-27%	-3%	x	35µM*	3%
Cn1nc([N+](=O)[O-])nc1S(C)(=O)=O	u	u	x	u	-5%	x	-8%	x
CCOC(=O)c1cnc2ccc(C)cc2c1Nc1ccc(N(CC)CC)cc1	u	u	-14%	0%	x	6%	x	x
Cn1c(=O)n(CCCOc2ccc(Cl)cc2)c2ccccc21	17%[46.1 µM]	15%	-4.5%	-26%	-17%	25%	2%	-11%
Cc1ccc(CCNC(=O)c2nnn(-c3cc(C)cc(C)c3)c2N)cc1	u	-4%	-1.1%	-26%	-3%	-3%	4%	-2%
COc1ccc(S(=O)(=O)Nc2nnc(C)s2)cc1	14%	-6%	-1.2%	5%	u	-5%	3%	1%
